Screening results deposited in PubChem BioAssay by The Scripps Research Institute Molecular Screening Center.
OXTR potentiate: human OXTR potentiation. CHO-OTR cells, Fluo-8 calcium fluorescence, potentiator mode; 0% = oxytocin EC15, 100% = EC100. AID 2445. actives 0.061% (n = 320,000). activation, % at 3 µM;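 active means activation above that plate's cutoff, the mean activation of tested compounds plus 3 SD, cut at about 6.6% in these data, passing the limit was not always enough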;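 further: 100% uses oxytocin at 75 nM as the full agonist control; some results filed as inactive read as strong as hits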
Target sequence (P30559 whole entry, looked up): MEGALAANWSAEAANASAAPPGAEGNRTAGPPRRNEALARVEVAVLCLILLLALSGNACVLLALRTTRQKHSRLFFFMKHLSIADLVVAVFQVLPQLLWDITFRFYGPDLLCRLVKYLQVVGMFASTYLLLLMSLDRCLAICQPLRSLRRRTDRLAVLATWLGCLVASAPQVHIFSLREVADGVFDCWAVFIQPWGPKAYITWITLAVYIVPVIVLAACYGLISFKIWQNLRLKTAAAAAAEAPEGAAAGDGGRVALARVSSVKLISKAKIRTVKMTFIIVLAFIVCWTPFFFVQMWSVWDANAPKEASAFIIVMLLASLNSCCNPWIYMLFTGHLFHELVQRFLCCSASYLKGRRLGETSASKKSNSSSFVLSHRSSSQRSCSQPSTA
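Dosing: Single dose, 3.0 µM nominal final compound concentration | Material: Human OTR in CHO cells | Technique: Kinetic Fluo-8 calcium fluorescence | Benchmarks: EC15 oxytocin alone as 0%, 75 nM oxytocin as 100% | Probe or stimulus: Oxytocin at about EC15, sub-maximal agonist stimulus | Incubation: Compound 6 min at room temperature before oxytocin, 100 s read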
CHO-K1 Ca PAM: M1 PAM counterscreen hit in parental CHO-K1 cells; ATP EC20, Fluo-8 calcium fluorescence; 0% at ATP EC20, 100% at ATP max; activation, % at 3 µM; actives 0.02% (n = 360,000);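 active means activation above the run cutoff, the mean activation of all test compounds plus 3 SD, cut at about 40% in these data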;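 further: peak over basal fluorescence ratio in a 140 s read after ATP addition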
CHO-K1 Ca ag: counter-screen for M1 agonists: effect in parental CHO-K1 cells; AID 602248; actives 0.48% (n = 360,000); Fluo-8 calcium fluorescence; scaled to maximal ATP response, vehicle zero; activation, % at 3 µM; in the data active means activation above about 15%;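 further: untransfected CHO-K1 host cells lacking M1 receptor as counterscreen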
CHO-K1 Ca antag: M1 antagonist counterscreen hit in parental CHO-K1 cells. ATP-induced calcium, Fluo-8 fluorescence. inhibition, % at 3 µM. actives 0.6% (n = 360,000). AID 602250;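 active means inhibition above a per-plate cutoff, the plate's mean sample inhibition plus 3 SD, cut at about 24% in these data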;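 further: 0% = DMSO plus EC80 ATP and 100% = DMSO alone without ATP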
CHO parental Ca: counter-screen: ATP calcium response change in parental CHO cells. parental CHO-K1, ATP-induced calcium, Fluo-8 fluorescence. inhibition, % at 5.6 µM. actives 0.63% (n = 330,000);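 active means inhibition above that plate's mean sample inhibition plus 3 SD, cut at about 26% in these data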;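 further: 0% = ATP-challenged DMSO wells and 100% = DMSO wells without ATP; some compounds past the cut are filed as inactive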
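Assay system: untransfected parental CHO cell line. Also added: ATP agonist challenge. Dosing: one dose, 5.6 µM nominal. Measured by: Fluo-8 fluorescence. Read-out: % inhibition. Benchmarks: ATP wells versus no-ATP DMSO wells. Repeats: no replicates.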
Numbers without * were called inactive. An excerpt (hit frequency here may not be typical).

Second line of a record: OXTR potentiate, CHO-K1 Ca PAM, CHO-K1 Ca ag, CHO-K1 Ca antag, CHO parental Ca
C[C@]12CCC3C(CC[C@H]4C[C@@H](O)CC[C@]34C)C1CCC2=O (stereo partly drawn)
→ -2.7, 23.5, 0.2, -11.6, -18.0
C[C@]12CC[C@@H](O)C[C@@H]1CC[C@@H]1[C@@H]2CC[C@]2(C)C(=O)CC[C@@H]12
→ -8.3, 5.3, 3.9, -4.5, -8.6
C[C@]12CCC3[C@@H](CC[C@H]4C[C@@H](O)CC[C@]34C)C1CCC2=O (stereo partly drawn)
→ 0.2, -6.9, 7.4, 5.8, -6.8
COc1ccccc1CCNCc1cc2c(cc1[N+](=O)[O-])OCO2
→ -0.8, 5.1, 0.6, 11.2, -16.0
O=c1[nH]c2ccccc2n1C1CCN(CCCC(c2ccc(F)cc2)c2ccc(F)cc2)CC1
→ -9.1, -13.2, -0.2, 14.3, -13.7
C[C@]12CC[C@H](O)C[C@@H]1CC[C@@H]1[C@@H]2CC[C@]2(C)C(=O)CC[C@@H]12
→ -9.0, 15.3, 6.0, -5.3, -19.4
C[N+]1(C)CCC(OC(=O)C(c2ccccc2)c2ccccc2)CC1
→ -12.6, 6.6, 0.2, 1.0, -10.5
CC1OC(NCCc2ccccc2)C(O)C(O)C1O (stereo not drawn)
→ -2.4, 10.8, 0.2, -8.5, -6.5
